P. falciparum M17LAP = P. falciparum M17LAP inhibitors, primary screen, biochemical, fluorogenic H-Leu-NHMec substrate, 1536-well (AID 1619). inhibition, % at 30 µM; hits with a dose series show IC50 in µM. 220,000 tested, 0.38% active. recombinant M17LAP, H-Leu-NHMec fluorogenic kinetic assay; higher % means a stronger effect;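 active = compound inhibiting the enzyme by more than half at any dose during confirmatory dose-response retesting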;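 also: plate controls were full reaction with DMSO carrier for no effect and no enzyme background for full effect; strong numbers were not always called active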
MT stabilizer = microtubule stabilization, imaging screen | HeLa tubulin immunostaining HCS, 24 h; share of cells brighter than vehicle mean+2SD | % tubulin-high responders, % at 10 µM | AID 2205 | 200,000 tested, 0.83% active;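 active = plate Z-score above 3 for both tubulin-high and condensed-nucleus cell shares, with cell loss under 80%, at 10 µM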;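 also: anti alpha tubulin signal scored within the nucleus-defined area of each cell; some results filed as inactive read as strong as hits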
Insulin prom up = MIN6 insulin promoter up-regulation; MIN6 insulin promoter-GFP reporter, high-content imaging; stronger effect = higher value; z-score at 5 µM; 190,000 tested, 0.3% active; AID 1625;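 active = z-score above 3 at 5 µM with at least 500 cells counted in the well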
Yfh1-depleted yeast = enhancers of respiration in Yfh1-depleted yeast, dose response, Friedreich's ataxia, plus single-dose screen (AID 1465). S. cerevisiae Yfh1-off respiration, WST-1 reduction, 72 h; higher fold induction means a stronger effect. fold induction at 50 µM, or EC50 in µM where a hit was titrated. 220,000 tested, 0.074% active;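 active = fold induction of absorbance versus untreated yeast above a set limit, then at least 30% activation at any dose in follow-up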;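 also: activators that raise dye reduction in frataxin-depleted yeast; strong numbers were not always called active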
b-catenin transl = beta-catenin nuclear translocation modulation; HeLa beta-catenin nuclear translocation, immunofluorescence imaging; nuclear translocation activity, % at 5 µM; 190,000 tested, 0.3% active;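 active = nuclear translocation activity above 50% at 5 µM, with a well cell count of 50 or more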;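 also: per-cell ratio of nuclear to cytoplasmic median beta-catenin stain intensity; plate controls were DMSO negative control for no effect and GSK-3 inhibitor IX positive control for full effect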
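Test system: HeLa cells, endogenous beta-catenin; Compound: single 5 µM dose plus 0.02–20 µM confirmation series; Times: compound exposure 24 h at 37°C; Signal: fluorescence imaging of beta-catenin antibody stain plus DAPI; Read-out: % activation, nuclear-to-cytoplasmic median beta-catenin signal ratio per cell.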
Dynein transport = blocks dynein driven cargo transport along microtubules; 3617.4 mouse cells, GR-EGFP nuclear translocation imaging; test concentration mostly 20 µM; stimulated with dexamethasone, 1 µM; stronger effect = lower value; z-score, hits read low; 220,000 tested, 0.47% active;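 active = plate z-score of nuclear minus cytoplasmic receptor signal below a set negative limit, without overly bright fluorescence or cell loss, cut at about -3.5 in these data, passing the limit was not always enough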;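 also: z-score of nuclear minus cytoplasmic ring GR-EGFP intensity difference per well; some compounds called inactive have numbers as strong as hits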
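Buffer or medium – tet-free medium with charcoal-stripped serum · Signal – automated 10x imaging of fixed Hoechst-stained cells · Also added – dexamethasone agonist, 1.0 µM final, for 30 min · Incubation – induction 48 h, compound 1 h, agonist 30 min · Read-out – GR-EGFP nuclear translocation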
Autophagy HCS = alters autophagy in cells. MEF GFP-LC3 puncta imaging; test concentration mostly 10 µM. calls only at 10 µM (by protocol). 190,000 tested, 0.98% active. AID 463193;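 active = percentage of spot-positive cells more than 3 SD above its plate mean, without a fluorescence outlier flag or 80% toxicity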;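 also: spot-positive cell cutoff set from DMSO-treated cells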
Dynein transport cytoplasmic EGFP = second read-out of Dynein transport, no call of its own (marks repeat the call); z-score; measured here: cytoplasmic GR-EGFP intensity; stronger effect = higher value
Dynein transport nuclear GR-EGFP = recorded beside Dynein transport, whose call it bears; z-score; measured here: nuclear GR-EGFP intensity;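 lower value marks the stronger effect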
Dynein transport cell count = further read-out of Dynein transport, marked with its call; z-score; measured here: cell count per field
Insulin prom up cell count = second read-out of Insulin prom up, no call of its own (marks repeat the call); cell count; measured here: cytotoxicity, nuclei count;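 total cells summed across four imaged fields per well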
b-catenin transl cell count 5 µM = also measured in b-catenin transl; calls as there; cell count; measured here: cell count, cytotoxicity flag
MT stabilizer Hoechst-high % = recorded beside MT stabilizer, whose call it bears; % Hoechst-high responders; measured here: nuclear condensation Hoechst responders;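 share of cells brighter than vehicle mean plus two SD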
MT stabilizer cytotoxicity % = further read-out of MT stabilizer, marked with its call; toxicity, %; measured here: cytotoxicity by cell density;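 0% = mean cell density of plate MIN control wells and 100% = no cells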
Autophagy HCS cell loss 18 h = also measured in Autophagy HCS; calls as there; toxicity, %; measured here: cell loss, nuclei count;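 cell loss after 18 h compound exposure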
* hit, by the source's call; i = inactive; . = no result given; + = active, no number.

SMILES	P. falciparum M17LAP	MT stabilizer	MT stabilizer Hoechst-high %	MT stabilizer cytotoxicity %	Insulin prom up	Insulin prom up cell count	Yfh1-depleted yeast	b-catenin transl	b-catenin transl cell count 5 µM	Dynein transport	Dynein transport cytoplasmic EGFP	Dynein transport nuclear GR-EGFP	Dynein transport cell count	Autophagy HCS	Autophagy HCS cell loss 18 h
CC(=O)NC(c1ccc(C)cc1)c1cc([N+](=O)[O-])c2cccnc2c1O (centres undefined)	7%	1.2	0.9	0.8	0.17	1440	25µM*	0.1	1033	-1.3	0.37	-0.58	0.62	i	10
Nc1c(Cl)ncnc1N1CCOCC1	4%	1.1	1.7	9.6	.	.	i	.	.	0.37	-0.2	-0.061	-0.19	i	-9
COc1cccc(Nc2ncc(C(=O)O)c3ccccc23)c1	23%	3.6	2.3	3.1	.	.	i	.	.	0.97	0.15	1	-1.9	i	0
COc1ccccc1NS(=O)(=O)c1cccc(NC(=O)Nc2ccc(Cl)cc2)c1	5%	3.3	1.0	7.4	0.28	1634	i	-4.4	1105	0.45	0.022	0.71	-0.95	i	24
O=C(Nc1ccc(CN2CCOCC2)cc1)c1ccc(-c2ccc(Cl)cc2Cl)o1	-5%	1.2	0.9	4.5	-0.86	1541	i	-0.8	1036	-0.36	-0.25	0.26	0.48	i	29
COc1ccc(NC(=O)/C(Cl)=C(/Cl)S(=O)(=O)Cc2ccccc2)cn1	9%	1.7	2.0	9.9	.	.	i	-2.2	940	-5.6*	0.66*	-2.2*	0.88*	+	25*
Cc1cc(Br)ccc1NC(=O)c1cnc(N2CCN(c3ccccn3)CC2)c2ccccc12	-13%	3.2	2.2	0.8	.	.	.	.	.	0.11	-0.21	0.09	0.2	i	8
O=[N+]([O-])c1cc(/C=N/Nc2nc3ccccc3[nH]2)c(O)cc1O	-3%	9.9	1.3	17	-0.21	806	i	4.6	729	-0.072	-0.24	0.039	0.36	i	17
Cc1ccc(Cc2cnc(N3C(=N)SC(c4ccccc4)C3=O)s2)cc1 (centres undefined)	3%	6.6	1.8	9.6	-0.25	1509	i	-1.7	1083	0.18	-0.22	0.23	-0.27	i	-11
COc1ccc2cc3c(N)nn(C(=O)C4CCC(C(C)(C)C)CC4)c3nc2c1 (centres undefined)	0%	1.8	2.0	2.6	0.03	834	i	1.6	532	-0.53	-0.16	0.35	0.62	i	-39
COc1cccc(C(=O)Nc2ccc(Oc3cccc(C(F)(F)F)c3)nc2)c1	1%	.	.	.	-0.36	1335	i	-0.1	1124	-0.73	-0.22	-0.5	1	.	.
CN(/N=C/c1cc(Cl)cc(Cl)c1O)C(=S)NC(C)(C)C	-5%	.	.	.	-1.6	1454	i	-4.6	1195	-0.65	-0.13	-0.34	0.65	.	.
Cn1c2ccccc2c(=O)c2c(=O)n(C3CCCCC3)c(-c3ccco3)nc21	19%	14	3.9	0.2	-0.67	1278	i	4.3	1204	-0.37	-0.29	-0.04	0.93	i	-2
O=C(NCc1cccs1)c1nc2c(nnn2Cc2ccccc2Cl)c(=O)[nH]1	-7%	14	1.4	36	-0.33	755	i	-5.4	475	1.1	-0.27	0.54	-0.22	i	-6
Clc1ccc(-c2ccnc(Oc3cc(Cl)ccc3Cl)n2)cc1	13%	3.6	1.7	4.5	.	.	i	.	.	1.2	-0.23	0.83	0.027	i	-29
O=C(OCn1ncc(Cl)c(Cl)c1=O)c1cccc(C(F)(F)F)c1	-4%	1.9	1.1	0.7	0.47	1150	i	-0.4	1270	-1.3	0.094	-0.54	-0.54	i	0
COc1cc(C2/C(=C(/O)c3ccc(F)cc3)C(=O)C(=O)N2CCCC(=O)O)ccc1O (centres undefined)	13%	9.9	1.1	12	.	.	i	.	.	-0.57	1.3	0.27	0.76	i	-7
Cc1ccc(-n2c(=O)cc(N3CCC(C)CC3)[nH]c2=O)cc1	-18%	4.4	4.1	15	.	.	i	.	.	0.11	-0.24	0.19	0.82	i	9
Cc1nn(C)c(Oc2ccc(Cl)cc2)c1C(=O)Nc1ccc(F)cc1F	17%	0.2	1.7	4.6	.	.	i	.	.	-0.28	-0.23	-0.59	0.71	i	4
c1ccc(CNc2ncnc3nc[nH]c23)cc1	45%	1.5	1.5	9.7	0.45	1034	i	.	.	-0.43	0.11	0.085	0.075	i	-7
CCN(c1ccc(OC)cc1)c1ncnc2nc[nH]c12	24%	2.6	2.5	5.6	0.45	1520	i	2.9	1072	-0.0054	-0.26	0.026	0.23	i	-2
CCOc1ccc(NC(=O)c2nnn(CC(=O)Nc3ccccc3OC)c2N)cc1	-5%	5.6	4.7	6.2	.	.	i	.	.	-0.43	-0.15	-0.075	0.29	i	9
Cc1ccc(NC(=O)c2cc3c(s2)CCCC3)cc1S(=O)(=O)Nc1ccccc1Cl	18%	2.6	1.8	2.3	-0.9	1494	i	-0.1	1149	0.028	-0.024	0.53	-0.37	i	3
CN(C)c1ccnc2sc3c(=O)n(Cc4ccccc4)cnc3c12	8%	2.2	1.6	0.7	-0.32	1482	i	-0.4	1336	0.85	-0.21	0.46	-0.64	i	1
COc1cc(OC)nc(Oc2ccccc2C(=O)Oc2ccc(C)cc2)n1	-2%	3.0	1.3	3.6	.	.	i	.	.	-0.52	-0.23	-0.85	0.8	i	6
O=C(NCc1cccnc1)/C(=C\c1ccc(-c2ccc(Cl)c(Cl)c2)o1)S(=O)(=O)c1ccccc1	-4%	35*	44*	60*	-1.7	631	i	15	724	-4.2*	1*	-2.5*	-0.64*	i	44
COc1ccc(C(C(=O)NC2CCCCC2)N(C(=O)CCl)c2cccc(Cl)c2)cc1 (centres undefined)	-22%	4.2	2.3	12	-1	686	i	.	.	-3.9*	0.45*	-2.2*	0.19*	i	51
Nc1nc2ccccc2nc1N1CCCC1	23%	2.2	1.9	7.5	.	.	i	.	.	-0.9	-0.2	-1.2	0.041	i	0
NC(=O)C1(NC(=O)[C@@H]2CC3(CC(c4cccc(NC(=O)[C@@H]5CCC(=O)N5)c4)=NO3)CN2C(=O)Cc2ccc(Cl)cc2)CC1 (some centres undefined)	-10%	2.8	1.2	7.2	.	.	i	.	.	0.7	-0.043	-0.46	-0.22	i	-7
CCC(=O)Nc1cccc(C(=O)/C=C/c2cc(Br)ccc2OC)c1	-4%	16	2.6	38	0.08	698	i	3.0	1178	-2	0.58	-0.72	-1	i	7
Cc1c([N+](=O)[O-])c2ccc(O)cc2n1-c1ccccc1	6%	.	.	.	-2.4	1333	i	-1.5	1185	-0.3	-0.12	-0.082	0.0033	.	.
Cc1cc(C)c(S(=O)(=O)/N=C2/C=C(Sc3ncn[nH]3)C(=O)c3ccccc32)cc1C	10%	2.6	1.2	4.4	1.1	1167	i	-3.4	518	-6.6*	1*	-2.8*	0.39*	i	-12

Arranged by molar mass (high to low): part of the list above.
SMILES	P. falciparum M17LAP	MT stabilizer	MT stabilizer Hoechst-high %	MT stabilizer cytotoxicity %	Insulin prom up	Insulin prom up cell count	Yfh1-depleted yeast	b-catenin transl	b-catenin transl cell count 5 µM	Dynein transport	Dynein transport cytoplasmic EGFP	Dynein transport nuclear GR-EGFP	Dynein transport cell count	Autophagy HCS	Autophagy HCS cell loss 18 h
NC(=O)C1(NC(=O)[C@@H]2CC3(CC(c4cccc(NC(=O)[C@@H]5CCC(=O)N5)c4)=NO3)CN2C(=O)Cc2ccc(Cl)cc2)CC1 (some centres undefined)	-10%	2.8	1.2	7.2	.	.	i	.	.	0.7	-0.043	-0.46	-0.22	i	-7
Cc1cc(Br)ccc1NC(=O)c1cnc(N2CCN(c3ccccn3)CC2)c2ccccc12	-13%	3.2	2.2	0.8	.	.	.	.	.	0.11	-0.21	0.09	0.2	i	8
COc1ccc(C(C(=O)NC2CCCCC2)N(C(=O)CCl)c2cccc(Cl)c2)cc1 (centres undefined)	-22%	4.2	2.3	12	-1	686	i	.	.	-3.9*	0.45*	-2.2*	0.19*	i	51
COc1ccccc1NS(=O)(=O)c1cccc(NC(=O)Nc2ccc(Cl)cc2)c1	5%	3.3	1.0	7.4	0.28	1634	i	-4.4	1105	0.45	0.022	0.71	-0.95	i	24
COc1cc(C2/C(=C(/O)c3ccc(F)cc3)C(=O)C(=O)N2CCCC(=O)O)ccc1O (centres undefined)	13%	9.9	1.1	12	.	.	i	.	.	-0.57	1.3	0.27	0.76	i	-7
O=C(NCc1cccs1)c1nc2c(nnn2Cc2ccccc2Cl)c(=O)[nH]1	-7%	14	1.4	36	-0.33	755	i	-5.4	475	1.1	-0.27	0.54	-0.22	i	-6
COc1ccc2cc3c(N)nn(C(=O)C4CCC(C(C)(C)C)CC4)c3nc2c1 (centres undefined)	0%	1.8	2.0	2.6	0.03	834	i	1.6	532	-0.53	-0.16	0.35	0.62	i	-39
Cc1nn(C)c(Oc2ccc(Cl)cc2)c1C(=O)Nc1ccc(F)cc1F	17%	0.2	1.7	4.6	.	.	i	.	.	-0.28	-0.23	-0.59	0.71	i	4
Clc1ccc(-c2ccnc(Oc3cc(Cl)ccc3Cl)n2)cc1	13%	3.6	1.7	4.5	.	.	i	.	.	1.2	-0.23	0.83	0.027	i	-29
CN(/N=C/c1cc(Cl)cc(Cl)c1O)C(=S)NC(C)(C)C	-5%	.	.	.	-1.6	1454	i	-4.6	1195	-0.65	-0.13	-0.34	0.65	.	.
c1ccc(CNc2ncnc3nc[nH]c23)cc1	45%	1.5	1.5	9.7	0.45	1034	i	.	.	-0.43	0.11	0.085	0.075	i	-7
Nc1nc2ccccc2nc1N1CCCC1	23%	2.2	1.9	7.5	.	.	i	.	.	-0.9	-0.2	-1.2	0.041	i	0

Screening data deposited in PubChem by several laboratories.

An excerpt; the hit share may differ from the screen's.
